Assay outcomes: PubChem BioAssay, Johns Hopkins Ion Channel Center
KCNQ2 inh: KCNQ2 potassium channel inhibitors, primary screen, cell-based, CHO-K1, FluxOR thallium flux, B-score (AID 2156); O88943; 20 min; active compounds read low; only compounds with negative scores are shown here; some inactives read as strong as hits; B-score at 10 µM; 1.1% of 310,000 active;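 active = fluorescence ratio B-score at most minus 3 library SDs, with starting brightness B-score within 2 library SDs, cut at about -5.5 in these data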
Target sequence (O88943 whole entry, looked up): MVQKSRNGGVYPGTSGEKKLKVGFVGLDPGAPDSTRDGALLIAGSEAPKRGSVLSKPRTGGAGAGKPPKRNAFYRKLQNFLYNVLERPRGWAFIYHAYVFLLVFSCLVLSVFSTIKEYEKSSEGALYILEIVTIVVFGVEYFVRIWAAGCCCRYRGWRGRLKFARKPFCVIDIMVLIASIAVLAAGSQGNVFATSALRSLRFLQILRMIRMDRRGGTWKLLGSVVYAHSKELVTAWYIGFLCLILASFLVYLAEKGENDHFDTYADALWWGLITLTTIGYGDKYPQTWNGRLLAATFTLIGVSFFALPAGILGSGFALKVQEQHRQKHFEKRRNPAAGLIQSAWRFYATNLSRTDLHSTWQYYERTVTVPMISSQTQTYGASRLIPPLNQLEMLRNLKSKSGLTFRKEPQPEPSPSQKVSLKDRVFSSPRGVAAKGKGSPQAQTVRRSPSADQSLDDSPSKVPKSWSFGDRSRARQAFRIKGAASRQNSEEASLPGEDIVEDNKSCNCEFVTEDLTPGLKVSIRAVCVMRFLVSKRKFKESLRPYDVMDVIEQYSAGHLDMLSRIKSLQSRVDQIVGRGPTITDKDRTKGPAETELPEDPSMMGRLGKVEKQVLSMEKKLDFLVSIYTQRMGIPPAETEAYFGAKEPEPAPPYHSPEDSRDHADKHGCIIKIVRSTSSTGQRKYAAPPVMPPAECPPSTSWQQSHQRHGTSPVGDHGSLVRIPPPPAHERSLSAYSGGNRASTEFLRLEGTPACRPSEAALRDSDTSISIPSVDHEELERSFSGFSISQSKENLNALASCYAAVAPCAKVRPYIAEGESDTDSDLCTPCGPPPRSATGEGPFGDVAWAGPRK
KCNQ2 inh baseline: also measured in KCNQ2 inh; calls as there; B-score; measured here: initial fluorescence intensity artifact check;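 brightness before thallium and not channel activity; 0 = typical well and far values either way flag optical interference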
Active calls of the source: *; i = inactive. An excerpt; count on the stated rates, not on these rows.

SMILES	KCNQ2 inh	KCNQ2 inh baseline
O=[N+]([O-])c1cccc(/C=C/c2ccncc2)c1	i	-1.04
c1ccc2[nH]c(CSc3nccs3)nc2c1	i	-0.6
O=C(NCC(=O)N(c1cccc(F)c1)C(C(=O)NC1CCCC1)c1ccncc1)c1ccco1 (configuration not stated)	i	-0.59
O=C(NCCCn1ccnc1)/C(=C\c1cccs1)NC(=O)c1cccs1	i	-0.75
c1ccc(COn2nnc3ccccc32)c(COn2nnc3ccccc32)c1	i	-0.16
Cc1cnc(NC(=O)CSc2nnc(-c3ccccc3)o2)s1	i	1.38
N#CC1(c2ccccc2)CCCN1C(=O)c1ccc(Br)cc1 (configuration not stated)	i	-0.23
CCOC(=O)c1sc2nc(C)nc(NCc3ccc(Cl)cc3)c2c1C	i	0.03
COc1ccc(-c2cc(C)nc3nc(N)nn23)cc1	i	-0.02
Cc1ccc(S(=O)(=O)N(C)c2ccc3c(ncn3C)c2[N+](=O)[O-])cc1	i	-0.26
Cc1cccc(C)c1OCc1cc(C(=O)N2CCN(c3ccccc3)CC2C)no1 (configuration not stated)	-7.09*	-1.94*
CC(=C/c1ccco1)/C=N/N1CCN(c2ccccc2)CC1	i	0.06
Cc1cccc(OCC(=O)Nc2ccc3c(c2)OCO3)c1C	i	0.08
COc1ccccc1-c1nnc(SCC(=O)Nc2c(Cl)cccc2Cl)o1	i	1.86
COc1cccc(C(c2nnnn2CCc2ccccc2)N2CCN(c3ccccc3)CC2)c1OC (configuration not stated)	-6.69*	-0.15*
NC(=O)COC(=O)c1cc(Cl)cc(Cl)c1N	i	1.36
COc1ccc(Cl)cc1C(=O)NCC(=O)OCc1ccccc1	i	1.68
Cc1ccc(Cn2c(O)c(N=O)c3ccccc32)cc1	-6.71*	1.4*
O=C(CN1C(=O)NC2(CCCCC2)C1=O)Nc1ccccc1N1CCCC1	i	1.05
CC(=O)COc1ccc2oc(=O)cc(-c3cc4ccccc4o3)c2c1	i	0.33
CCOC(=O)Cc1csc(NC(=O)/C=C/c2ccc(Cl)cc2)n1	i	-0.76
CC1CCN(C(=O)CN(c2ccc(Oc3ccccc3)cc2)S(C)(=O)=O)CC1	i	-0.16
Cc1[nH]c2ccccc2c1C(=O)COc1ccccc1F	i	0.64
O=C(CSCc1c(Cl)cccc1Cl)NCc1ccccn1	i	0.69
CCN1CCCC1CNCc1ccc(OCc2ccc(Cl)nc2)c(OC)c1 (configuration not stated)	i	-0.24
Cn1c(N)c(C(=O)CN2CCc3ccccc3C2)c(=O)n(C)c1=O	i	-0.18
CSC1=C(C#N)C(c2ccccc2)C(C(C)=O)=C(C)N1 (configuration not stated)	i	1.18
O=C(CSc1ccc2ccccc2n1)c1ccccc1	i	2.32
O=C(NC1CCCN(Cc2ccc(Cl)cc2)C1)c1ccccc1-c1ncc[nH]1 (configuration not stated)	i	-0.75
COc1ccc(-c2ccc(/C=C(\NC(=O)c3ccccc3)C(=O)N3CCOCC3)o2)cc1	i	-0.04
Cc1ccc(S(=O)(=O)CNC(=S)c2cccc(C)c2)cc1	i	0.83
CC(NC(=O)c1ccccc1)c1nnc(SCc2nc3ccccc3c(=O)[nH]2)n1C (configuration not stated)	i	1.1
CCN(C(=O)/C=C/c1cc(OC)c(OC)c(OC)c1)C1CCCCC1	i	0.89
Cc1cccc(C)c1OCc1cc(C(=O)N(C)Cc2nc3ccccc3[nH]2)no1	i	3.48
COc1ccc2c(c1)[nH]c1c(=O)n(CCN3CCOCC3)cnc12	i	0.16
Cc1ccc(C=Nc2ccccc2C(=O)Nc2ccccc2)cc1	i	0.32

Shown as labelled records: 2 of the compounds above.
> COc1ccc2c(c1)[nH]c1c(=O)n(CCN3CCOCC3)cnc12
- KCNQ2 inh: i
- KCNQ2 inh baseline: 0.16

> COc1ccc(-c2ccc(/C=C(\NC(=O)c3ccccc3)C(=O)N3CCOCC3)o2)cc1
- KCNQ2 inh: i
- KCNQ2 inh baseline: -0.04

(list continues)
SMILES	KCNQ2 inh	KCNQ2 inh baseline
CCOc1ccc(C(=O)Nc2ccccc2CC)cc1[N+](=O)[O-]	i	-0.84
NC(N)=N/N=C/c1ccc(OCc2ccccc2)cc1	-6.77*	-0.31*
Cc1ccc(C)c(CN2C(=O)C3CCCN3c3ccc(S(=O)(=O)N4CCOCC4)cc32)c1 (configuration not stated)	i	0.03
O=C(c1cccnc1)N1CCC(Oc2ccc(C(=O)N3CCCCO3)cc2)CC1	i	-0.02
CCOC(=O)NC(=O)CSc1ccc(C)cc1C	i	1.36
O=C(NCCC1CCCCN1S(=O)(=O)c1ccc(F)cc1)C(=O)NCCN1CCOCC1 (configuration not stated)	i	1.79
Cc1ccc(S(=O)(=O)N(CC(=O)N/N=C/c2ccco2)Cc2ccccc2)cc1	i	1.96
NC(=O)C1CC(=O)N(c2ccc(OCC(=O)NCc3ccccc3)cc2)C1 (configuration not stated)	i	0.13
Cc1nnc(SCCN2CCOCC2)c2nn(-c3ccccc3F)c(C)c12	i	-0.49
CCOc1ccccc1NC(=O)NC1CCN(CC(=O)Nc2ccc3c(c2)OCCO3)CC1	i	-0.61
Cc1cc(F)ccc1NS(=O)(=O)c1cccc2nsnc12	i	-0.84
CCCCCCOc1ccc(N2C(=O)CC(N3CCN(CCN=CC4C(=O)CC(C)(C)CC4=O)CC3)C2=O)cc1 (configuration not stated)	i	1.53
CN(CC(=O)Nc1ccc(Cl)cc1)C(=O)Cc1c(F)cccc1Cl	i	1.83
Cc1ccc(N=Cc2ccc(O)cc2O)cc1F	i	0.33
COCCCNC(=O)CSC1=Nc2ccccc2C2=NC(Cc3c[nH]c4ccccc34)C(=O)N12 (configuration not stated)	i	1.46
C[C@H](NC(=O)c1ccccc1Cl)C(=O)Nc1ccccc1F	i	0.06
CCCn1nc([N+](=O)[O-])c(C(C#N)c2nc3ccccc3o2)c(Cl)c1=O (configuration not stated)	i	-4.24
COc1ccc(Cn2c(CO)cnc2SCC(=O)Nc2cc(C)on2)cc1	i	-0.02
O=[N+]([O-])c1ccc2c(c1)C(O)n1nc(-c3ccc(Cl)cc3Cl)nc1S2 (configuration not stated)	i	0.87
COc1ccccc1N1C(=O)c2ccccc2NC1c1cc(OC)c(OC)c(OC)c1 (configuration not stated)	i	-1.38
Cc1ccc(N(CC(O)COCc2ccco2)S(=O)(=O)c2ccc(C)cc2)cc1 (configuration not stated)	i	0.84
CN(C)C(CNC(=O)c1ccc(-c2ccccc2)cc1)c1ccccc1 (configuration not stated)	-6.63*	0.79*
CC(=O)c1ccc(-n2cc(-c3ccc(C(C)(C)C)cc3)[n+]3c2SCCC3)cc1	i	-1.82
COc1ccc(-c2cc(CS(=O)(=O)c3ccccc3)on2)cc1	i	0.02
O=C(O)c1ccc(/C=N/N2CCN(Cc3cccc4ccccc34)CC2)cc1	i	0.09
Cc1ccc(S(=O)(=O)N2CCCC2CNC(=O)C(=O)NCCN2CCOCC2)cc1 (configuration not stated)	i	0.72
Cc1cc(=S)cc(C)n1CCO	i	-0.41
Cc1ccccc1OCc1nnc(SCC(=O)Nc2ccc3nc(SCC(=O)NC(C)(C)C)sc3c2)n1C	i	-0.08
CCOc1ccc(NC(=O)CN(C)c2ccc(S(=O)(=O)N3CCOCC3)cn2)cc1OCC	i	2
CC1NC(=O)NC1CCCCCC(=O)Nc1ccc(F)c(Cl)c1 (configuration not stated)	i	0.81
Cc1ccccc1Cn1ccc(=NCc2ccccc2)cc1	i	0.43
c1csc(-c2nnc(Cc3cccc4ccccc34)o2)c1	i	0.39
Cc1ccc(/C=C2/Sc3ccc(C(=O)N4CCN(c5ccccn5)CC4)cc3NC2=O)cc1	i	1.17
CC(=O)c1c(C)n([O-])c2ccccc2[n+]1=O	i	1.74
CCC1CCc2c(sc(NC(=O)c3cccnc3)c2C(N)=O)C1 (configuration not stated)	i	0.79
Cc1c(Br)c(C(F)(F)F)nn1CC(=O)NCc1ccccc1	i	-0.56
CCOc1ccccc1NC(=O)C(CC(C)C)NC(=O)C1CCCCC1 (configuration not stated)	i	-0.19
COc1ccc(/C=C2/SC(=O)N(CC(O)Cn3c4ccccc4c4ccccc43)C2=O)cc1 (configuration not stated)	i	1.14
CCC1(C(=O)c2ccc(Cl)cc2)C2c3ccccc3OC(=O)C21C(=O)Nc1ccccc1 (configuration not stated)	i	0.82
O=C(NCc1ccco1)c1ccc([N+](=O)[O-])cc1Cl	i	-0.01
COc1ccccc1C(c1nnnn1C(C)C)N1CCN(C(=O)c2ccco2)CC1 (configuration not stated)	i	1.12
Cc1cc(=O)n2nc(N3CCCC(C(=O)NCc4ccccc4Br)C3)sc2n1 (configuration not stated)	i	1.37
Cc1ccc(C(=O)Nc2ccc(N3CCOCC3)cc2N2CCOCC2)cc1	i	-0.2
CC(C)c1ccc(NC(=S)NC2CCCCCC2)cc1	i	3.27
COc1ccc(C(=O)O)c(O)c1	i	-0.34
COc1ccc(C(C(=O)NCc2ccccc2)N(C(=O)c2snc(C(N)=O)c2N)c2ccccc2OC)cc1OC (configuration not stated)	i	0.95
O=C(Nc1ccccc1N1CCOCC1)c1ccc2ccccc2c1	i	0.34
Cc1ccccc1C(=O)c1cccn1CC(=O)NCc1ccc(Cl)cc1	i	0.28
COc1cccc(-c2nn(-c3ccccc3)cc2CO)c1	i	-1.31
Cc1ccc(-c2ccc(C(=O)NCc3ccc(Cl)cc3)o2)c2ccccc12	i	-0.97
Cc1ccc(S(=O)(=O)C2C(=O)N(C)C3(C)CC2c2ccccc2O3)cc1C (configuration not stated)	i	0.23
CSc1nnc2c(n1)OC(C)N(C(=O)c1ccccc1)c1ccccc1-2 (configuration not stated)	i	0.62
CC1(C)CC(=O)C=C(Nc2ccc(C(=O)O)cc2)C1	i	2.05
COc1cc(Cl)ccc1OCc1cc(C(=O)N(C)Cc2nnc(C)o2)no1	i	-0.12
Cc1ccc(NS(=O)(=O)c2ccc(-c3ccc(=O)[nH]n3)o2)cc1Cl	i	-1.35
CC(=O)N1CCN2C(=O)C1CCCC(=O)c1cc(C3CCCCC3)ccc12 (configuration not stated)	i	1.3
COc1ccc(C(=O)C2CCCN(Cc3cc(Cl)ccc3O)C2)c(OC)c1 (configuration not stated)	i	1.68
O=C(NCc1ccccc1)C(Cc1ccccc1)N1C(=O)C2C3CCC(C3)C2C1=O (configuration not stated)	i	-0.99
O=C(C1CCC(=O)N(C2CC2)C1)N1CCC(Oc2cccc(F)c2)CC1 (configuration not stated)	i	-0.34
O=[N+]([O-])c1cccnc1N1CCC(c2cc(-c3cccc(C(F)(F)F)c3)n[nH]2)CC1	i	-0.86
Later entries:
SMILES	KCNQ2 inh	KCNQ2 inh baseline
COc1ccc(C)cc1NC(=O)CNC(c1ccccc1)c1ccc(C)cc1 (configuration not stated)	i	-0.66
Cc1ccc(OCc2ccc(C(=O)NN)o2)cc1C	i	1.53
Cc1ccc(CNC(=O)c2csc3c2CCCCC3)cc1	i	0.15
Cc1ccc(S(=O)(=O)NCCC(=O)Nc2cccc(Cl)c2)cc1	i	1.21
CN(c1ccccc1)S(=O)(=O)c1ccc(C(=O)Nc2nnc(-c3ccc(F)cc3)o2)cc1	i	0.14
Nc1c2c(nc3c1CCCC3)CCCC2 (tested in a mixture with another compound)	i	1.08
CCOc1nonc1C(=N)/C(C(C)=O)=C(\C)O	i	-0.61
COc1ccc(-n2cc(-c3ccccc3)c3c(N4CCOCC4)ncnc32)cc1	i	-0.42
CCOc1ccc(NC(=O)[C@@H](NC(=O)OCc2ccccc2)[C@@H](C)CC)cc1	i	1.34
N#Cc1cnc2nc(SCc3ccccc3)nn2c1	i	-0.44
Cc1ccc2nc(NC(=O)C3CCN(S(=O)(=O)c4cccc5nsnc45)CC3)sc2c1	i	3.86
Cc1cc(C)n2nc(C(=O)OCC(=O)N(C)Cc3ccccc3)nc2n1	i	0.22
CCOC(=O)c1sc2nc(CSc3ccccc3)nc(NCCN(C)C)c2c1C	i	-1.25
N#Cc1nc(Cc2ccccc2)oc1NCCc1ccccc1	i	-0.76
C[C@@H]1Cc2c(O)c(O)cc(O)c2C(=O)O1	i	0.71
CCOC(=O)C1=C(c2ccccc2)NC(=O)NC1c1cc(Br)c(O)c(OC)c1 (configuration not stated)	i	0.26
COc1ccccc1C(=O)NCC(=O)N/N=C/c1ccc([N+](=O)[O-])cc1	i	0.01
N#Cc1ccc(/C=C\c2nccc3c2[nH]c2ccccc23)cc1	i	-1.22
COc1cccc(NC(=O)C2(S(=O)(=O)c3ccc(Cl)cc3)CC2)c1	i	0.53

19 successive entries out of the list so far, for reference:
SMILES	KCNQ2 inh	KCNQ2 inh baseline
COc1ccc(C)cc1NC(=O)CNC(c1ccccc1)c1ccc(C)cc1 (configuration not stated)	i	-0.66
Cc1ccc(OCc2ccc(C(=O)NN)o2)cc1C	i	1.53
Cc1ccc(CNC(=O)c2csc3c2CCCCC3)cc1	i	0.15
Cc1ccc(S(=O)(=O)NCCC(=O)Nc2cccc(Cl)c2)cc1	i	1.21
CN(c1ccccc1)S(=O)(=O)c1ccc(C(=O)Nc2nnc(-c3ccc(F)cc3)o2)cc1	i	0.14
Nc1c2c(nc3c1CCCC3)CCCC2 (tested in a mixture with another compound)	i	1.08
CCOc1nonc1C(=N)/C(C(C)=O)=C(\C)O	i	-0.61
COc1ccc(-n2cc(-c3ccccc3)c3c(N4CCOCC4)ncnc32)cc1	i	-0.42
CCOc1ccc(NC(=O)[C@@H](NC(=O)OCc2ccccc2)[C@@H](C)CC)cc1	i	1.34
N#Cc1cnc2nc(SCc3ccccc3)nn2c1	i	-0.44
Cc1ccc2nc(NC(=O)C3CCN(S(=O)(=O)c4cccc5nsnc45)CC3)sc2c1	i	3.86
Cc1cc(C)n2nc(C(=O)OCC(=O)N(C)Cc3ccccc3)nc2n1	i	0.22
CCOC(=O)c1sc2nc(CSc3ccccc3)nc(NCCN(C)C)c2c1C	i	-1.25
N#Cc1nc(Cc2ccccc2)oc1NCCc1ccccc1	i	-0.76
C[C@@H]1Cc2c(O)c(O)cc(O)c2C(=O)O1	i	0.71
CCOC(=O)C1=C(c2ccccc2)NC(=O)NC1c1cc(Br)c(O)c(OC)c1 (configuration not stated)	i	0.26
COc1ccccc1C(=O)NCC(=O)N/N=C/c1ccc([N+](=O)[O-])cc1	i	0.01
N#Cc1ccc(/C=C\c2nccc3c2[nH]c2ccccc23)cc1	i	-1.22
COc1cccc(NC(=O)C2(S(=O)(=O)c3ccc(Cl)cc3)CC2)c1	i	0.53
